GALR2 agonist: activates the human galanin receptor 2; AID 803; activation, %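 (tested at 5 µM)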; actives 0.48% (n = 140,000); GALR2-expressing cells, agonist activation read-out; O43603;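 active = above mean plus 3 SD of all compounds, about 5% in these data, not always enough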;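 also: 0% = vehicle buffer wells and 100% = reference agonist at full effect; tested in CHO reporter cells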
Target sequence (O43603 whole entry, looked up): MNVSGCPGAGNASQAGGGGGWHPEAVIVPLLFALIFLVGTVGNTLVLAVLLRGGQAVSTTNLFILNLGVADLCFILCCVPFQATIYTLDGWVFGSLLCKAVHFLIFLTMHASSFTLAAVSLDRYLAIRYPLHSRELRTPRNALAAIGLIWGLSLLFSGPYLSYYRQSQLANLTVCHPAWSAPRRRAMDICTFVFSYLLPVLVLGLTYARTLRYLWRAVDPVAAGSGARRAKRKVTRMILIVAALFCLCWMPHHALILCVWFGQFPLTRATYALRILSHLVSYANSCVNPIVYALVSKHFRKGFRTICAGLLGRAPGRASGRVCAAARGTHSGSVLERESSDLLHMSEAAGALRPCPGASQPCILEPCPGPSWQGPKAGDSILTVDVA
HSV augment: HSV replication enhancement | HSV replication augmentation in cells, fold increase | maximum fold increase | actives 0.005% (n = 220,000) | AID 1956;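 active = peak rise of 1.5-fold or more in the series; inconclusive = self-fluorescent or not available for retest; tested in PC3 cells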;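 also: first round at 10 µM; read as green reporter fluorescence; hits show the peak of a series up to 25 µM; 1 = signal of infected wells without compound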
INS promoter inh: TRM-6 insulin promoter activity inhibition | TRM-6 cells (human fetal islet line), insulin promoter-eGFP reporter, imaging; reporter expression induced with tamoxifen | inhibition, % at 2 µM | actives 0.9% (n = 130,000);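 active = inhibition above the mean plus 3 SD, with well images judged a real hit on visual review, cut at about 60% in these data, passing the limit was not always enough; inconclusive = inhibition over the cutoff but images rejected on review; inactive = inhibition not above the cutoff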
RGS16-Gao: modulates binding between human RGS16 and Galphao | O15492+P09471 | bead-based flow cytometry RGS16-Galphao binding, fluorescence; actives lie on both sides | binding response (% of control), % at 10 µM | actives 0.38% (n = 220,000);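 active = below 25% or above 175%, edge rows of some plates excepted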;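 also: Galphao activated by GDP with aluminum fluoride before binding; 100% = wells without compound and 0% = beads without RGS; some results beyond the cut were filed as inactive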
Target sequence (O15492 whole entry, looked up): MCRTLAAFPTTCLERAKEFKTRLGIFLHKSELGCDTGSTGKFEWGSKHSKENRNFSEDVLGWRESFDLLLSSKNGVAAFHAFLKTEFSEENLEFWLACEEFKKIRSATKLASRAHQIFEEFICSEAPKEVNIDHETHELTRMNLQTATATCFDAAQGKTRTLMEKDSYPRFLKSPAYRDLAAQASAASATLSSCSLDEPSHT
Target sequence (P09471 whole entry, looked up): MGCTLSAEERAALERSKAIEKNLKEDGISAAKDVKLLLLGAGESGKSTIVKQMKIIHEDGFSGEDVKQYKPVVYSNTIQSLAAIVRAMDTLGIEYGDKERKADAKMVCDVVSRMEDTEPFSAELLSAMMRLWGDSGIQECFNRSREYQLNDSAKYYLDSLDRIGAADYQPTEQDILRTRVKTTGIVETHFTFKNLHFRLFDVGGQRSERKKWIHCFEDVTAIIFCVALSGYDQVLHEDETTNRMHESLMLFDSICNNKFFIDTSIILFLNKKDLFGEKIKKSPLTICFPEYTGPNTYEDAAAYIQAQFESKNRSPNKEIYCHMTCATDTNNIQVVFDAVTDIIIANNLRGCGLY
PKD1 kinase inh: PKD1 (human) kinase inhibition; PKD1 kinase fluorescence polarization assay; Q15139; inhibition, %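 (about 10 µM by stock and volumes)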; actives 0.056% (n = 200,000);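 active = inhibition of 50% or more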;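 also: controls were vehicle for no effect and a reference inhibitor for full effect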
INS promoter inh cell count: second read-out of INS promoter inh, no call of its own (marks repeat the call); normalized cell count, %; measured here: cell count, toxicity; reference of the scale not given here;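 cells exposed to compound for 48 h; stained nuclei by imaging scaled within each plate; lower means fewer cells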
HSV augment primary fold: second read-out of HSV augment, no call of its own (marks repeat the call); fold increase; compound at 10 µM; measured here: primary screen fold increase 10 uM; tested in PC3 cells;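 GFP signal in the first replicate; 1 = infected wells without compound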
An asterisk follows results filed as active; i = inactive; u = inconclusive; x = no result given.

SMILES	GALR2 agonist	HSV augment	HSV augment primary fold	INS promoter inh	INS promoter inh cell count	RGS16-Gao	PKD1 kinase inh
CCCS(=O)(=O)N1CCC(C(=O)NCc2ccco2)CC1	0.5	i	1	x	x	108	3
CCCCCNC(=O)CCn1c(=O)oc2ccccc21	-2.2	i	0.94	-1	56	101	-11
CCOC(=O)c1ccc(S(=O)(=O)Nc2ccccc2-c2nnn(CC)n2)cc1	-1.2	i	1.1	x	x	106	-6
CC(=O)Nc1nnc(Cc2ccccc2)s1	-1.9	i	0.92	40	107	108	3
N=C1C(c2nc3ccccc3s2)=C(O)CN1CCCO	-1.3	i	0.97	x	x	101	-2
CC(C)n1nnnc1SCC(=O)N1CCN(C(=O)c2ccco2)CC1	0.5	i	1	68	73	103	-10
CCCCN1C(=O)N(c2nnc(C(C)(C)C)s2)C(O)C1c1ccc(C)cc1 (stereo not drawn)	x	i	0.88	x	x	102	x
Cc1nnc(SCCn2c(N3CCN(C)CC3)nc3c2c(=O)n(C)c(=O)n3C)s1	-3.5	i	1.1	18	59	102	4
Cc1cc(NC(=O)/C(C#N)=C/c2ccc(-c3cccc(C(F)(F)F)c3)o2)n(-c2ccccc2)n1	-0.8	x	x	x	x	111	-4
O=C1/C(=C/c2ccc(O)c(O)c2)Oc2cc(O)ccc21	x	u	x	x	x	64	x
O=C(Cn1cnc2c(oc3ccccc32)c1=O)NCc1ccco1	-1.9	i	1	82*	69*	97	9
O=C(COc1ccccc1Cl)Nc1cc(Cl)ccc1O	x	i	1	x	x	93	-2
CCOC(=O)Cn1c(=NC(=O)c2cc(-c3cccs3)nc3ccccc23)sc2cc(S(N)(=O)=O)ccc21	3.4	i	0.72	8	117	111	0
Cc1ccc2cc(C3CC(c4ccco4)=NN3C(=O)CCCC(=O)O)c(Cl)nc2c1 (stereo not drawn)	x	i	0.97	x	x	101	x
Cc1ccccc1Cc1c(C)nc2c(C(=O)N3CCN(Cc4ccc5c(c4)OCO5)CC3)cnn2c1C	-1.1	i	0.75	40	89	x	2
CC1CCCCC12NC(=O)N(CC(=O)c1ccc[nH]1)C2=O (stereo not drawn)	-2.0	i	1.1	-21	77	99	0
O=C(/C=C/c1ccccc1)NC(=S)N1CCSCC1	x	i	1	x	x	112	8
Cc1cccc(-c2nnc3n2N=C(c2ccccc2Br)CS3)c1	-1.5	x	x	x	x	95	-5
CCOC(=O)c1[nH]c2ccc(OC)cc2c1NC(=S)N1CCN(c2ccccc2)CC1	-1.2	i	0.98	19	77	34	-4
O=c1[nH]c(Cc2ccc(F)cc2)nc2scc(-c3ccc(F)cc3)c12	2.3	i	0.9	15	148	81	2
CCCC(=O)Nc1nc2ccc(S(=O)(=O)N3CCCCC3)cc2s1	-0.2	i	0.53	x	x	98	-9
Cc1nnc(SCC(=O)NCC2CCCCC2)n(N)c1=O	-1.6	i	1	40	109	102	-5
NC(N)=NS(=O)(=O)c1ccc(N)cc1	-2.0	i	0.93	19	102	101	-12
Cc1cc(NC(=O)COC(=O)c2ccco2)no1	x	i	0.92	x	x	95	-3
CCCNC(=O)Nc1cccc(NC(C)=O)c1	x	i	1	x	x	93	x
COc1cccc(NC(=O)COC(=O)c2cc(S(=O)(=O)N3CCOCC3)ccc2C)c1	-1.9	i	0.87	-3	144	101	2
CCOc1c(Cl)cc(/C=N/O)cc1OC	-0.5	i	0.96	17	132	105	-6
O=C(c1cc2c(s1)CCCC2)N1CCN(Cc2ccc3c(c2)OCO3)CC1	-0.9	i	0.98	-73	100	102	-3
COc1ccccc1OCc1ccc(C(=O)NCC(C)C)o1	x	i	0.96	-33	125	102	-2
Cc1cc(OCc2nn[nH]n2)c2c(-c3ccccc3)cc(=O)oc2c1	-0.8	i	0.62	x	x	99	16
O=C(O)CCCC(=O)NNC(=O)c1cccc(Br)c1	x	i	1.3	-35	73	101	-5
Cc1ccc(NC(=O)CN2CCCCC2)c2c1CC(C)(C)O2	x	i	0.96	x	x	101	-7
Cc1ccc(N/N=C(\C#N)C(=N)N2CCCCCC2)cc1	x	i	0.93	-25	100	105	-2
O=C(COc1ccc(-c2nnc(N3CCCCC3)c3ccccc23)cc1)N1CCCCC1	-0.5	i	0.93	20	104	99	-9
COC(=O)c1sc2nc(N3CCCCC3)c3c(c2c1N)CC(C)(C)N(C)C3	-2.0	i	0.64	-43	104	x	-1
COc1cccc(CN2CCN(Cc3c(C)nn(C(C)C)c3C)CC2CCO)c1 (stereo not drawn)	x	i	1	39	203	108	-4
CC(C)(C)Sc1nc(O)cc(=O)[nH]1	-0.8	i	1	-10	134	105	3
CCOC(=O)/C(C#N)=C/c1cc2ccccc2nc1Cl	-3.8	i	0.95	-7	85	100	-3
O=C(Nc1nnc(Cc2ccccc2)s1)c1cccnc1	x	i	0.93	x	x	103	-9
O=C(CCC1CCCC1)N1CCN(C2CCCC2)CC1	-1.3	i	0.96	-19	54	128	-18
COc1ccc(CN2CCNC(=O)C2CC(=O)NCCC2=CCCCC2)cc1OC (stereo not drawn)	x	i	1.1	x	x	101	-2
CC1CCc2c(sc(NC(=O)COC(=O)c3ccccc3NCc3ccco3)c2C#N)C1 (stereo not drawn)	-2.0	i	0.81	-41	89	-59	-4
Cc1ccccc1-c1nc(CN2CCSCC2)c(C)o1	x	i	0.97	x	x	192	0
CN(C)CCOC(=O)c1ccc2[nH]c3c(c2c1)CSCC3	x	i	0.88	x	x	102	x
CC(=O)N(CN1C(=O)CCC1=O)c1cccc(Cl)c1	-0.9	i	1	x	x	95	3
CC1CC(C)(C)NC(=S)N1CC(=O)NCc1ccc(F)cc1 (stereo not drawn)	x	i	0.94	x	x	98	-3
CN1CCN(Cc2ccc(OCc3ccccc3)cc2)CC1	-2.9	i	1	x	x	97	-2
COC(=O)CNC(=O)CSc1nnc2cc(C)c3ccccc3n12	x	i	0.94	x	x	102	-3
CC(=O)Nc1ccc(N(C)C)cc1[N+](=O)[O-]	-1.6	i	0.93	-35	66	102	-10
COc1cc2[nH]c(=S)n(CCCN3CCOCC3)c(=O)c2cc1OC	-0.9	i	0.83	49	109	105	-3
COc1cccc(OCC(=O)Nc2ccccc2-c2ccccc2)c1	x	i	0.93	x	x	110	-12
COc1ccccc1N1CCN(Cc2cccc(OC)c2OC)CC1	-2.6	i	0.9	-8	109	98	-11
Cc1ccc(CCCOC(=O)C[N+]2(C)CCCCC2)cc1	x	i	0.9	x	x	103	2
Cc1ccc(N2NC(=O)/C(=C/C=C/c3ccco3)C2=O)cc1C	x	i	1	x	x	103	10
O=c1sc(Nc2ccccc2)nc2ccccc12	x	i	0.94	0	109	101	0
O=C(c1cc(-c2ccc(Cl)cc2)n(-c2ccc(Cl)c(Cl)c2)n1)N1CCOCC1	0.2	i	0.97	27	85	107	-18
O=C(O)CCS(=O)(=O)c1ccccc1Cl	x	i	1	x	x	101	-2
CCN1CCCC1CN(Cc1cc2ccc(C)cc2[nH]c1=O)C(=S)Nc1ccc(OC)cc1 (stereo not drawn)	-1.6	i	0.98	-25	64	106	-2
COc1ccc(N2CCN(C(=O)COc3ccc(Cl)cc3Cl)CC2)cc1	-3.4	i	0.93	-12	88	96	2
O=P(c1ccccc1)(c1ccccc1)c1nc(-c2ccccc2)oc1NCc1ccccc1	x	i	0.98	x	x	101	9
More records
SMILES	GALR2 agonist	HSV augment	HSV augment primary fold	INS promoter inh	INS promoter inh cell count	RGS16-Gao	PKD1 kinase inh
Cc1cccc(CCNS(=O)(=O)c2ccc3c(c2)n(C)c(=O)c(=O)n3C)c1	-1.1	i	0.99	x	x	89	0
Cn1c(=O)c(C(=O)CCl)c(N)n(Cc2ccccc2)c1=O	-1.5	i	0.82	14	107	112	-11
Cn1c(SCC(=O)Nc2cccc(C(=O)O)c2)nnc1-c1cc2cc(Br)ccc2o1	x	i	0.96	x	x	107	-4
COc1ccc(CNC(=O)c2ccc(SC)cc2OC)cc1	-0.1	i	0.88	x	x	100	3
CCCC(NS(=O)(=O)c1ccc(C)cc1)C(=O)O (stereo not drawn)	-3.6	i	0.92	-4	54	110	-1
COc1cc(C(=O)N2CCN(C(=O)COc3ccc4ccccc4c3)CC2)cc(OC)c1OC	-1.1	i	1	-10	80	102	-8
O=C(O)c1ccc(OCc2cn3ccccc3n2)cc1	x	i	1	x	x	103	x
COc1cc(/C=C/C(=O)O)cc(S(=O)(=O)Nc2cccc(SC)c2)c1OC	-0.1	i	0.96	2	112	52	-8
c1ccc(Cc2nc(-c3ccccn3)no2)cc1	-0.9	i	0.9	x	x	47	9
Cc1cc(S(=O)(=O)NCC(C)C)ccc1OCC(=O)NCc1ccco1	x	i	1.1	-82	81	99	-6
COC(=O)CN1C(=O)C(O)(CC(=O)c2ccc(Cl)cc2)c2ccccc21 (stereo not drawn)	-1.7	i	0.98	10	120	140	1
Cc1cc(C)n(Cc2ccc(C(=O)NN)o2)n1	x	i	1.1	x	x	113	x
CNc1nc(OCC#N)nc(N2CCCCC2)n1	x	i	0.98	21	135	101	-6
CCC1SC2=NCCN2C1(O)c1ccc(Cl)cc1 (stereo not drawn)	-2.2	i	0.95	x	x	76	-10
CCOc1ccc(-c2nnn(CC(=O)NCc3ccc4c(c3)OCO4)n2)cc1	-1.1	i	1	-25	115	104	4
O=C(O)c1ccc(NC(=O)C2C3CCC(C3)C2C(=O)O)cc1 (stereo not drawn)	-1.3	i	0.97	x	x	102	12
C[C@]1(C(=O)NCCN2CCOCC2)C=C[C@@H](Cc2ccccc2)N1C(=O)c1ccccc1	-1.4	i	0.97	14	55	100	-3
COc1ccc(OCC(O)CNC(=O)c2ccc(C)cc2)cc1 (stereo not drawn)	x	i	1	x	x	99	x
COc1cc2c(cc1OC)C1C/C(=N\O)C(CC(C)C)CN1CC2 (stereo not drawn)	-1.0	i	0.77	-71	64	111	-6
COC(=O)c1cc(C(=O)Nc2nnc(CC(C)C)s2)cc([N+](=O)[O-])c1	-0.5	i	0.96	16	124	109	2
O=C(Nc1cccc(C(F)(F)F)c1)C(SCCO)c1ccccc1 (stereo not drawn)	-1.5	i	1.1	x	x	104	15
COc1ccc(C(=O)NC(NC(=O)c2ccc(OC)c(OC)c2)c2ccccc2F)cc1OC	-1.5	i	1	29	59	106	4
CC(C)OP(=O)(OC(C)C)C(O)c1ccc2c(c1)OCO2 (stereo not drawn)	-0.2	i	1	-16	78	60	-9
COc1ccc(NC(=O)c2nc(C)c(C3(C)CC(c4ccccc4)=NO3)s2)cc1 (stereo not drawn)	x	i	0.51	x	x	94	x

Entries from the list above with a Cl atom, in the order listed:
SMILES	GALR2 agonist	HSV augment	HSV augment primary fold	INS promoter inh	INS promoter inh cell count	RGS16-Gao	PKD1 kinase inh
O=C(COc1ccccc1Cl)Nc1cc(Cl)ccc1O	x	i	1	x	x	93	-2
Cc1ccc2cc(C3CC(c4ccco4)=NN3C(=O)CCCC(=O)O)c(Cl)nc2c1 (stereo not drawn)	x	i	0.97	x	x	101	x
CCOc1c(Cl)cc(/C=N/O)cc1OC	-0.5	i	0.96	17	132	105	-6
CCOC(=O)/C(C#N)=C/c1cc2ccccc2nc1Cl	-3.8	i	0.95	-7	85	100	-3
CC(=O)N(CN1C(=O)CCC1=O)c1cccc(Cl)c1	-0.9	i	1	x	x	95	3
O=C(c1cc(-c2ccc(Cl)cc2)n(-c2ccc(Cl)c(Cl)c2)n1)N1CCOCC1	0.2	i	0.97	27	85	107	-18
O=C(O)CCS(=O)(=O)c1ccccc1Cl	x	i	1	x	x	101	-2
COc1ccc(N2CCN(C(=O)COc3ccc(Cl)cc3Cl)CC2)cc1	-3.4	i	0.93	-12	88	96	2
Cn1c(=O)c(C(=O)CCl)c(N)n(Cc2ccccc2)c1=O	-1.5	i	0.82	14	107	112	-11
COC(=O)CN1C(=O)C(O)(CC(=O)c2ccc(Cl)cc2)c2ccccc21 (stereo not drawn)	-1.7	i	0.98	10	120	140	1
CCC1SC2=NCCN2C1(O)c1ccc(Cl)cc1 (stereo not drawn)	-2.2	i	0.95	x	x	76	-10
